AF4-AF9 inh: MLL-AF4/AF9 protein interaction inhibition. P42568. AlphaScreen, biotin-AF4 peptide binding to FLAG-AF9. inhibition, % at 10 µM. 350,000 compounds, 0.47% hits. AID 651704;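 active means every replicate reaching a set inhibition limit, whatever the replicate mean, cut at about 25% in these data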;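 further: 0% = plate neutral control median and 100% = total signal loss; the record names both 10 and 1 µM as test concentration; the first replicate is given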
Target sequence (P42568 whole entry, looked up): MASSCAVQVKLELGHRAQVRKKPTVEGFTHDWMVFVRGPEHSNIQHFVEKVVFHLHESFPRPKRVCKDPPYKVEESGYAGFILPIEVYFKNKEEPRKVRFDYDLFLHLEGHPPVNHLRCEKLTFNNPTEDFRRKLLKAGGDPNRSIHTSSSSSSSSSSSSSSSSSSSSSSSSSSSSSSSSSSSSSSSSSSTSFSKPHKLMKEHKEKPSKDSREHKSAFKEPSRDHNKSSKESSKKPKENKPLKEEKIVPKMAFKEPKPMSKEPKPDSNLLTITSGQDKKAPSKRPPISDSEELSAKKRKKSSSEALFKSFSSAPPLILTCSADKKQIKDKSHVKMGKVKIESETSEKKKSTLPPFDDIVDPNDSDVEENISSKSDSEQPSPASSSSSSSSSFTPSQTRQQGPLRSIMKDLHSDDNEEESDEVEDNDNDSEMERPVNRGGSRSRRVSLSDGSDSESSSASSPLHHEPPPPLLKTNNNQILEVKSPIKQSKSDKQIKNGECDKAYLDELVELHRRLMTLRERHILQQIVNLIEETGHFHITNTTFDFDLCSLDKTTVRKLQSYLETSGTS
Bfl-1 A1 inh: inhibitors of the anti-apoptotic protein A1, read as caspase activation | MEF A1-2A-BIM cells, Caspase-Glo 3/7 luminescence, 3 h; percent of clofoctol response, vehicle zero | caspase activation, % (concentration not given with the values) | 330,000 compounds, 0.066% hits | AID 2462;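 active means over half of replicate activation scores above 10%, or exactly half above 10 with the replicate mean above 10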;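 further: wells of about 30 µL received 50 nL stock; many hits fall short of the cut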
UCH37 inh: blocks the human deubiquitinase UCH37; Q9Y5K5; purified proteasome/UCH37, Ub-AMC cleavage fluorescence; inhibition, % (concentration not given with the values); 330,000 compounds, 0.33% hits; AID 588478;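 active means mean of two replicates above 20%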;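 further: 0% = compound-free wells with enzyme and 100% = wells lacking proteasome; stock transfer was 100 nL into about 20 µL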
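Schedule: 30 min plus 25 min, room temperature / Material: human UCH37 within purified proteasomes / Technique: AMC fluorescence intensity at 355/460 nm / Buffer or medium: pH 7.4 Tris-HCl (50 mM) with ovalbumin, ATP-MgCl2, DTT / Controls: wells without proteasome as full block, compound-free enzyme plus substrate as uninhibited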
rRNA inh HTS: selective bacterial rRNA inhibition in E. coli | E. coli WT GFP vs humanized-ribosome RFP mutants, fluorescence, 24 h; hits give low values; DMSO median 0, no signal -100 | GFP signal change (wild-type ribosome), % (test concentration not listed) | 350,000 compounds, 1.6% hits | AID 720706;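 active means significant combined selectivity score with lowered wild-type GFP, culture density cut under 30%, mutant RFP and density less affected; inactive means any of these conditions unmet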; further: one replicate is shown; some compounds called inactive have numbers as strong as hits
Beta apoptosis: blocks beta cell apoptosis | INS-1E cytokine-induced death, ATP luminescence, 48 h; percent of positive-control rescue, neutral wells zero | protection from apoptosis, % (no concentration beside the values) | 300,000 compounds, 0.8% hits | AID 435005;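 active means all replicates at 75% or more, or half of them and the mean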;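 further: 0% = cytokine-treated negative control wells and 100% = positive control rescue; higher means more ATP so stronger rescue from cytokine killing; wells of about 40 µL received 100 nL stock; the first replicate is given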
E coli growth: E. coli growth inhibition. Escherichia coli growth, OD600, 23 h; hits give low values. OD600 absorbance (concentration not given with the values). 330,000 compounds, 0.21% hits. AID 1053175;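 active means OD600 absorbance below the run mean of sample wells minus 3.6 SD, in any replicate, cut at about 0.56 in these data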;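 further: stock transfer was 300 nL into about 60 µL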
T cruzi inh: blocks replication of Trypanosoma cruzi | T. cruzi beta-gal in NIH3T3, luminescence, 90 h | inhibition, % (no concentration beside the values) | 300,000 compounds, 1.4% hits | AID 1885;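 active means mean inhibition across valid replicates above about 55%, limit read from the data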;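 further: signal also drops with host cell toxicity which is not excluded here; 0% = plate median of DMSO wells and 100% = zero luminescence signal; higher percent means less beta-gal luminescence so fewer parasites; stock transfer was 50 nL into about 50 µL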
FGF22 binding: FGF22 (human) thermal shift binding; Q9HCT0; recombinant FGF22 thermal shift, SYPRO orange fluorescence; percent of sucrose octasulfate shift, DMSO zero; calls only at 9.99 µM; 340,000 compounds, 1.5% hits;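 active means melting point raised past a set limit in the mean and every replicate; three in four hits are not shown here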
Target sequence (Q9HCT0 whole entry, looked up): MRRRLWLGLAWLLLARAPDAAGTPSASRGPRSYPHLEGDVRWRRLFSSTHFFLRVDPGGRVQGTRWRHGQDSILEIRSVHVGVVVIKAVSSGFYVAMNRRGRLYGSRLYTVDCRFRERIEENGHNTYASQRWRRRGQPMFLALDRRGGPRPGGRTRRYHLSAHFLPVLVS
rRNA inh HTS OD600: recorded beside rRNA inh HTS, whose call it bears; OD600 change, %; measured here: OD600 growth;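 optical density of the mix in the first replicate; 0 = DMSO median and -100 = no signal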
rRNA inh HTS RFP: also measured in rRNA inh HTS; calls as there; RFP signal change, %; measured here: RFP humanized mutant strains;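 first replicate; 0 = DMSO median and -100 = no signal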
* hit, by the source's call; i = inactive; / = not tested or not shown. A portion of the library, so the mix of outcomes need not match the whole.

no.	smiles	AF4-AF9 inh	Bfl-1 A1 inh	UCH37 inh	rRNA inh HTS	rRNA inh HTS OD600
1	COc1ccc(NC(=O)CN(C)C(=O)/C=C/c2cn(-c3ccccc3)nc2-c2cccs2)cc1	2.9	0.4	-26	-12	-10
2	Nc1ccc(-n2nc3ccccc3n2)cc1	-10	-3.1	-246	-7	2
3	CCOc1ccc2nc(NC3=NC(C)(C)C=C(C)N3)nc(C)c2c1	/	0.2	-14	/	/
4	Cc1nc(NS(=O)(=O)c2ccc(Br)cc2)c2c3c(sc2n1)CCC3	/	-0.9	3.5	/	/
5	O=C1CCCN1c1ccc(S(=O)(=O)N2CCCCC2)cc1[N+](=O)[O-]	1.4	-0.1	1.8	5	7
6	COc1ccc(S(=O)(=O)NCCSc2ccc(C)cc2)cc1OC	/	0.5	2.4	/	/
7	COc1ccc(CN(C)C(=O)C23CC4CC(CC(Cl)(C4)C2)C3)c(OC)c1OC	2.0	-0.7	3.1	-29*	-15*
8	Cc1cc(NC(=O)c2ccc3c(c2)C(=O)N(Cc2ccccc2)C3=O)no1	2.8	3.4	1.9	15	17
9	O=C(CSc1nc(=O)n(CCCN2CCOCC2)c2c1CCC2)Nc1ccc(F)cc1	0.2	0.6	-1.2	2	5
10	Cc1cc(NC(=O)C2CC(=O)N(c3ccccc3C)C2)no1 (centres undefined)	-0.1	-0.7	4.3	8	11

no.	rRNA inh HTS RFP	Beta apoptosis	E coli growth	T cruzi inh	FGF22 binding
1	1.7	-4	0.66	6	i
2	2.5	-6	0.67	-11	i
3	/	3	0.71	46	/
4	/	8	/	-15	/
5	-0.9	-7	0.7	-2	i
6	/	2	0.72	2	/
7	6.4*	-2	0.71	25	i
8	-2.4	11	0.7	-12	i
9	-0.9	-7	0.72	7	/
10	-1.2	3	0.69	-17	i

Next part:
no.	smiles	AF4-AF9 inh	Bfl-1 A1 inh	UCH37 inh	rRNA inh HTS	rRNA inh HTS OD600
11	CN(Cc1ccccc1)C(=O)c1ccc(Cl)c([N+](=O)[O-])c1	-0.2	0.1	3.0	-13	-7
12	NC(=O)C1CCN(CC(=O)NCc2ccccc2)CC1	/	0.1	-0.2	/	/
13	CC12CN3CC(C)(CN(C1)C3c1ccc([N+](=O)[O-])o1)C2 (centres undefined)	-3.6	-0.4	1.4	2	11
14	O=C(NC1CCCCCC1)c1cccnc1Sc1ccccc1	0.9	0.1	4.3	9	6
15	COc1ccc(CNC(=O)c2cc(C3CC3)nc3c2cnn3C(C)C)cc1OC	-0.8	0.8	5.0	0	2
16	COc1ccc(N/C=C(\C#N)c2nc3ccccc3n2C)c(OC)c1	/	-0.1	0.5	/	/
17	O=C1Nc2cc3c(cc2C1=O)sc1ccccc13	0.6	0.9	4.4	/	/
18	COc1ccc(C2CC(=O)c3c(C)nc(N4CCN(Cc5ccccc5)CC4)nc3C2)cc1OC (centres undefined)	/	0.4	2.1	/	/
19	O=[N+]([O-])c1cccc(-c2nc(-c3ccccc3)no2)c1	0.3	-4.9	0.3	16	18
20	COc1ccc(C(=O)N(Cc2ccccc2)c2cccc(C)c2)cc1S(=O)(=O)N1CCOCC1	-0.3	0.1	-1.0	-5	-10

no.	rRNA inh HTS RFP	Beta apoptosis	E coli growth	T cruzi inh	FGF22 binding
11	-8.7	-5	0.61	-5	i
12	/	-6	0.72	2	/
13	-1.7	-9	0.68	5	i
14	-0.8	-9	0.71	-12	i
15	-0.8	11	0.7	/	i
16	/	15	0.69	23	/
17	/	-7	0.64	-18	i
18	/	9	0.65	55*	/
19	-0.8	-4	0.68	4	/
20	4.4	24	0.72	13	i

Reprinted, nos. 13 to 17
no.	smiles	AF4-AF9 inh	Bfl-1 A1 inh	UCH37 inh	rRNA inh HTS	rRNA inh HTS OD600
13	CC12CN3CC(C)(CN(C1)C3c1ccc([N+](=O)[O-])o1)C2 (centres undefined)	-3.6	-0.4	1.4	2	11
14	O=C(NC1CCCCCC1)c1cccnc1Sc1ccccc1	0.9	0.1	4.3	9	6
15	COc1ccc(CNC(=O)c2cc(C3CC3)nc3c2cnn3C(C)C)cc1OC	-0.8	0.8	5.0	0	2
16	COc1ccc(N/C=C(\C#N)c2nc3ccccc3n2C)c(OC)c1	/	-0.1	0.5	/	/
17	O=C1Nc2cc3c(cc2C1=O)sc1ccccc13	0.6	0.9	4.4	/	/

no.	rRNA inh HTS RFP	Beta apoptosis	E coli growth	T cruzi inh	FGF22 binding
13	-1.7	-9	0.68	5	i
14	-0.8	-9	0.71	-12	i
15	-0.8	11	0.7	/	i
16	/	15	0.69	23	/
17	/	-7	0.64	-18	i

Next section.
no.	smiles	AF4-AF9 inh	Bfl-1 A1 inh	UCH37 inh	rRNA inh HTS	rRNA inh HTS OD600
21	CCCCCn1c(=O)[nH]c2cc(C(=O)N3CCN(c4ccc(F)cc4)CC3)ccc2c1=O	-1.2	/	0.9	4	11
22	COCCCNCCCOc1ccc(C)cc1Br	/	-0.1	-1.1	/	/
23	COc1cccc(NC(=O)CN(C)C(=O)CCc2nc3sc4c(c3c(=O)[nH]2)CCCC4)c1	-0.5	0.0	-1.0	9	11
24	CCC(C)C(NC(=O)c1ccccc1NC(=O)c1ccc(OC)cc1)C(=O)NCc1ccco1 (centres undefined)	/	0.6	-19	/	/
25	CCCOC1CCCN(C(=O)CCc2nnc(Cc3cccc(C)c3)o2)C1 (centres undefined)	1.1	-0.7	0.6	0	1
26	Cc1cccc(-[n+]2c(C)cc(C)c3c(=O)[nH]c(=O)[nH]c32)c1	1.5	1.2	/	3	6
27	Cc1cccc(N/C(N)=N/c2nc(C(F)(F)F)cc(C(F)(F)F)n2)c1	0.7	-0.5	2.0	1	0
28	Cc1cc(C)n2nc(SCC(=O)N/N=C/c3ccc(F)cc3)nc2n1	-39	-0.3	/	-2	-1

no.	rRNA inh HTS RFP	Beta apoptosis	E coli growth	T cruzi inh	FGF22 binding
21	0.4	/	0.71	/	i
22	/	0	/	44	/
23	6.5	1	0.72	8	i
24	/	5	0.67	12	/
25	-3.6	0	0.69	0	i
26	-4.7	-5	/	-13	i
27	0.0	-4	0.68	25	i
28	-3.9	-16	/	-22	i

4 of these compounds in a different format.
22) COCCCNCCCOc1ccc(C)cc1Br
26) Cc1cccc(-[n+]2c(C)cc(C)c3c(=O)[nH]c(=O)[nH]c32)c1
27) Cc1cccc(N/C(N)=N/c2nc(C(F)(F)F)cc(C(F)(F)F)n2)c1
25) CCCOC1CCCN(C(=O)CCc2nnc(Cc3cccc(C)c3)o2)C1 (centres undefined)

| compound no. | 22 | 26 | 27 | 25 |
| --- | --- | --- | --- | --- |
| AF4-AF9 inh | / | 1.5 | 0.7 | 1.1 |
| Bfl-1 A1 inh | -0.1 | 1.2 | -0.5 | -0.7 |
| UCH37 inh | -1.1 | / | 2.0 | 0.6 |
| rRNA inh HTS | / | 3 | 1 | 0 |
| rRNA inh HTS OD600 | / | 6 | 0 | 1 |
| rRNA inh HTS RFP | / | -4.7 | 0.0 | -3.6 |
| Beta apoptosis | 0 | -5 | -4 | 0 |
| E coli growth | / | / | 0.68 | 0.69 |
| T cruzi inh | 44 | -13 | 25 | 0 |
| FGF22 binding | / | i | i | i |
